# Screening data deposited in PubChem BioAssay by several laboratories.
# BJeLR viability – BJeLR cell viability loss | AID 1554 | BJeLR (HRASV12) viability, CellTiter-Glo ATP luminescence, 48 h; reference of the scale not given here | hit rate 0.17% among 300,000 | inhibition, % (no concentration beside the values);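 active = replicate mean above 50%; inconclusive = above 50% but judged a plate artefact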;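 note: 50 nL library stock added to about 25 µL; numbers are from one replicate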
# PrP 5UTR inh – inhibition of PrP 5' UTR reporter expression | cell-based PrP 5' UTR mRNA reporter, plate reader | inhibition, % (concentration not given with the values) | hit rate 0.35% among 340,000 | AID 488862;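 active = every replicate at 50% or more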;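 note: 0 = median of the neutral control wells; tested in H4 reporter cells; numbers are from one replicate; inactives centre near -14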
# Mtb hypoxia rep – inhibitors of hypoxia-regulated fluorescent reporter in Mycobacterium tuberculosis. hit rate 0.1% among 300,000. AID 1159583. fluorescence inhibition, % (test concentration not listed). M. tuberculosis hypoxia-regulated fluorescent reporter, fluorescence;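 active = 35 to 45% if threefold the growth effect, above 45% if 1.5-fold the growth effect; inactive = the rest, general growth blockers included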;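 note: wells of about 50 µL received 100 nL stock; 0% = vehicle wells and 100% = reference inhibitor wells; whole bacteria with a GFP reporter of the hypoxia response; strong numbers were not always called active; many hits fall short of the cut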
# ugtP null kill – kills S. aureus RN4220 lacking UgtP. S. aureus RN4220 ugtP deletion, OD600 growth, 16 h; some inactives read as strong as hits. growth inhibition, % (test concentration not listed). hit rate 0.54% among 330,000. AID 1259309;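 active = z-score under -3 and OD600 up to 0.15 on both plates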;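 note: plate controls were untreated wells for no effect and antibiotic for full effect; wells of about 80 µL received 100 nL stock; the first replicate is given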
# Sa RN4220 lethal – S. aureus RN4220 growth inhibition; OD600, 16 h; inhibition, % (no concentration beside the values); hit rate 0.33% among 330,000; AID 1259311;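 active = z-score of -3 or lower and OD600 up to 0.18 on both plates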;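 note: plate controls were untreated cells for no effect and reference antibiotic for full effect; stock transfer was 100 nL into about 80 µL; one replicate is shown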
# Autofluor counter – flagged as autofluorescent in microsphere protease counterscreen. compound autofluorescence counterscreen, microsphere flow cytometry; active compounds read high. fluorescence intensity (test concentration not listed). hit rate 3.1% among 360,000. AID 624483;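 active = at least 3 SD above the mean of all compounds, about 16000 in these data; inconclusive = too few beads counted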;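 note: 100 nL of 1 mM stock went into each well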
# Mtb hypoxia rep growth – further read-out of Mtb hypoxia rep, marked with its call; growth inhibition, %; measured here: M. tuberculosis growth (absorbance);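 0% = vehicle and 100% = reference antibiotic; read after six days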
# Starred values were filed as active, the others as inactive; ? = inconclusive; / = no result given.
SMILES,BJeLR viability,PrP 5UTR inh,Mtb hypoxia rep,Mtb hypoxia rep growth,ugtP null kill,Sa RN4220 lethal,Autofluor counter
c1ccc(OCc2nnc(-c3ccccc3)o2)cc1,6,-32,4,16,-5,6.7,3170
COc1cc2c(cc1OC)C(c1cccc(OC)c1OC)CC(=O)N2 (configuration not stated),-8,-15,21,11,-6,6.3,9368
COc1ccccc1C(=O)NC(=O)COC(=O)c1ccc(Cl)nc1,-2,-25,22,10,8,3.4,?
CCOc1ccc(NC(=O)N(CCC(C)C)C(C)c2ccco2)cc1 (configuration not stated),1,-15,/,/,/,/,2147
CN(CC(=O)Nc1cccc(S(=O)(=O)N2CCCC2)c1)CC(=O)Nc1ccc(Cl)c(C(F)(F)F)c1,-7,-16,4,-1,-12,-2.6,?
COc1ccc(CNc2nc3nc(C)cc(C)n3n2)cc1OC,4,-15,-10,-1,-2,0.6,?
O=C(c1ccoc1)N1CCC2(CCCN(Cc3ccc(F)c(F)c3)C2)C1 (configuration not stated),0,-10,-2,0,1,0.5,6903
CC(=O)Nc1ccc(NC(=O)C2CC(=O)N=C(N)S2)cc1 (configuration not stated),-4,-25,5,13,-3,-18,3201
CCOc1ccc(-n2cc(-c3ccccc3)c3c(=O)[nH]cnc32)cc1,-1,-12,-6,18,3,8.6,2598
CCN(Cc1ccccc1)Cc1cc(OC)cc(OC)c1,-4,-6,-2,-6,1,-0.9,15907
Cc1cccc(C)c1NC(=O)CSCc1cccc(CSCC(=O)Nc2c(C)cccc2C)n1,-5,-4,13,0,1,4.3,/
COc1ccc(-n2cnc3cc(N)ccc32)cc1,0,-26,10,5,2,6.3,8998

# Among those listed so far, 2 have a Cl atom:
SMILES,BJeLR viability,PrP 5UTR inh,Mtb hypoxia rep,Mtb hypoxia rep growth,ugtP null kill,Sa RN4220 lethal,Autofluor counter
COc1ccccc1C(=O)NC(=O)COC(=O)c1ccc(Cl)nc1,-2,-25,22,10,8,3.4,?
CN(CC(=O)Nc1cccc(S(=O)(=O)N2CCCC2)c1)CC(=O)Nc1ccc(Cl)c(C(F)(F)F)c1,-7,-16,4,-1,-12,-2.6,?

# (continued)
SMILES,BJeLR viability,PrP 5UTR inh,Mtb hypoxia rep,Mtb hypoxia rep growth,ugtP null kill,Sa RN4220 lethal,Autofluor counter
CCOC(=O)c1c(N)sc2c1CCS(=O)(=O)C2,-8,-28,7,1,9,0.7,6635
CCN(CC(=O)Nc1ccccc1OC)C(=O)c1ccc(N(C)S(=O)(=O)c2ccc(C)cc2)cc1,9,-10,-1,4,5,3.8,5472
CC(C)(C)OC(=O)NNC(=O)Nc1ccccc1C(F)(F)F,4,-10,-1,-2,-3,-1.2,2087
CCN(CC)CC(=O)N(CC(=O)Nc1c(C)cc(C)cc1C)C1CCCCC1,-2,-14,-10,-5,-6,-4.2,/
COc1ccc(CC(=O)NCCC(C)C)cc1S(=O)(=O)N1CCOCC1,3,0,-3,14,5,7.9,3955
CC(=NNC(=O)CNc1ccc(C)cc1)c1ccc(Cl)cc1,/,/,2,3,-9,-0.7,/
Cc1cc(C)cc(NC(=O)C(NCC2CCCO2)c2ccccc2)c1 (configuration not stated),2,-14,6,13,9,3.0,2619
CC(=C/c1ccccc1)/C=N/n1c(-c2ccco2)n[nH]c1=S,-3,-21,/,/,/,/,9853
c1ccc(CN(CCN2CCOCC2)Cc2ccccc2)cc1,/,-9,8,12,3,3.8,4348
FC(F)(F)c1cccc(Cc2noc(CN3C[C@@H]4CCC[C@H]3C4)n2)c1,4,-27,20,7,12,9.3,4257
CC(C)(C)OC(=O)CN1C(=O)NC(Cc2c[nH]c3ccccc23)C1=O (configuration not stated),-11,-9,-11,7,1,2.3,3550
CN(CC(=O)NCc1ccncc1)S(=O)(=O)c1ccc2ccccc2c1,2,-22,-10,-7,11,9.3,4628
CC(C)(C)c1ccc(C(=O)Nc2ccccc2C(=O)NCCN2CCOCC2)cc1,1,5,1,-1,2,0.3,6066
O=C(c1ccco1)N1CCN(Cc2cccc([N+](=O)[O-])c2)CC1,-5,-16,4,9,8,3.0,3052
C=CCNC(=O)C1CCN(S(=O)(=O)c2ccccc2)CC1,-8,-21,-2,7,-13,6.5,8954
COc1ccc(CCNC(=O)C2CCC(=O)N(CCc3ccc(OC)cc3)C2)cc1 (configuration not stated),3,-12,5,-4,7,-0.7,5487
Nc1ccc2c(C(F)(F)F)cc(=O)oc2c1,5,-21,/,/,0,1.5,4206
Cc1nn(-c2ccccc2)c(C)c1/C=N/n1c(-c2ccccc2Br)n[nH]c1=S,6,-7,/,/,/,/,4279
CC1CCCCC1NC(=O)C1CCN(S(=O)(=O)N2CCOCC2)CC1 (configuration not stated),12,-29,-1,-1,5,5.2,11248
O=C(COC(=O)C1CCN(c2ccc(C(F)(F)F)cn2)CC1)c1ccc(F)cc1,0,-5,-4,6,4,4.5,5572
Nc1nc(Cl)cc(Oc2ccccc2F)n1,4,-25,11,-5,5,8.0,4707
NC(=O)C1(N2CCCCC2)CCN(C(=S)Nc2ccc(F)c(Cl)c2)CC1,8,-12,20,1,10,5.5,5534
COc1ccc(NC(=O)C2C3C=CC4(O3)C2C(=O)N(CCCN2CCCCC2)C4C(=O)NC2CCCC(C)C2C)cc1 (configuration not stated),0,-15,0,2,-3,-2.9,3072
Cc1ccccc1OCC(=O)NN=Cc1ccc(Sc2nc3ccccc3s2)o1,/,/,5,9,-18,-7.8,/
Cc1cc(NC(=O)COC(=O)C2CCN(S(=O)(=O)c3ccc(Cl)cc3)CC2)no1,2,1,4,0,6,1.9,3059
O=C(c1ccco1)n1nc(-c2cccnc2)nc1NCc1ccco1,10,-26,2,10,6,1.9,4529
N#Cc1c(NC(=O)CSc2nc(N)cc(=O)[nH]2)sc2c1CCCC2,-1,21,0,14,3,3.1,3366
COc1cccc(/C=N/n2c(COc3ccccc3)n[nH]c2=S)c1O,-2,-21,/,/,/,/,3726
NC(=O)CSc1nnc(-c2cccs2)n1-c1ccccc1,4,9,7,-3,-2,-2.5,3210
COc1ccc(-c2csc3ncnc(N4CCN(C(=O)c5ccco5)CC4)c23)cc1,11,-8,/,/,/,/,5395
C=CCN(CC=C)S(=O)(=O)c1ncn[nH]1,1,-20,/,/,-2,1.8,2462
CC1=NN(C(=O)c2ccc(C)cc2)C(O)(C(F)(F)OC(F)(F)F)C1 (configuration not stated),-9,-8,1,6,-6,4.8,9050
COc1cccc(/C=N/NC(=O)c2c(C)nc3ccc(Cl)cn23)c1OC,0,-24,/,/,/,/,3900
CSc1cccc(NC(=O)c2ccc(CN3CCc4ccccc4C3)cc2)c1,12,-5,-3,-10,11,2.1,3298
CCOC(=O)c1c(C)[nH]c(C)c1C(=O)CSc1nc2ccccc2c(=O)n1-c1ccc(CC)cc1,-26,-8,2,-7,0,0.4,2151
Cc1cc(=O)oc2cc(OCCc3ccccc3)ccc12,8,-52,7,7,9,5.7,4317
CC(=O)Nc1ccc(NC(=O)C(C)OC(=O)C2CC3C=CC2C3)cc1 (configuration not stated),-1,-3,5,7,-2,3.2,1877
C/C(=N\NC(=O)c1c[nH]c2ccccc12)c1ccco1,-4,-57,/,/,/,/,5945
CCCCCCCCCCCC(=O)NN=Cc1ccco1,/,/,7,5,-7,-1.6,/
COc1ccc(CCNC(=O)C/C(C)=N/NC(=O)c2ccc(Cl)cc2Cl)cc1OC,2,-24,/,/,/,/,5244
COc1ccccc1/C=C1\SC(=S)N(CCC(=O)Nc2nnc(C)s2)C1=O,-2,-8,-7,-8,0,1.3,4184
COc1ccccc1N(C)S(=O)(=O)c1ccc(C(=O)NC2CCCCCC2)cc1,1,-5,1,10,18,3.6,5028
C=CCOc1c2ccc(C(=O)NCCc3ccc(C)cc3)cc2nn1C,-8,-12,9,2,-2,-9.4,4179
O=C(Cc1ccc(Br)cc1)NC1CCCc2ccccc21 (configuration not stated),-5,-47,6,10,8,0.6,5562
N#CC1=C2N=C(N)c3c(sc4c3CCCCC4)N2C2=C(C(=O)CCC2)C1c1ccccc1 (configuration not stated),1,-1,8,12,-14,-1.2,4143
COC(=O)c1sc(SC)c(S(=O)(=O)C(C)C)c1N/N=C(\C#N)S(=O)(=O)c1ccccn1,9,-19,/,/,/,/,4486
NC(=O)c1ccc(-c2ccc(Br)cc2)o1,6,-9,10,1,9,5.6,9061
Cc1ccc(CNC(=O)CCC2CCCN(Cc3c(C)nn(C(C)C)c3C)C2)o1 (configuration not stated),-12,-20,16,-3,11,3.5,2581
O=C(c1ccccc1)N1CCN(C(=O)c2ccccc2)c2ccccc21,/,-1,0,2,0,2.3,2587
CCOC(=O)N1CCN(C(=O)c2ccc(C)c(S(=O)(=O)Nc3cccc(C)c3C)c2)CC1,1,-16,6,-1,5,4.8,9944
Cn1c(N)c(C(=O)COC(=O)CNC(=O)c2ccccc2F)c(=O)n(C)c1=O,/,-11,6,7,11,5.7,2950
O=C(c1ccccc1)c1ccc(N=Nc2c(O)[nH]c(=O)[nH]c2=O)cc1,3,-42,14,-1,3,7.4,3248
CCOc1ccc(N(CC(=O)N2CCOCC2)S(=O)(=O)c2ccc(F)cc2)cc1,5,-1,10,9,8,3.8,?
COc1ccc2c(=O)c3c(=O)n(Cc4ccco4)c(-c4ccco4)nc3oc2c1,-5,-19,-1,-1,-18,9.7,8037
CC(C)Cc1nnc(NC(=O)CCNC(=O)c2ccco2)s1,-3,-23,8,-1,11,-2.6,3615
Cc1ccnc(NS(=O)(=O)c2ccc(NS(=O)(=O)c3ccccc3)cc2)n1,8,1,-4,1,-7,1.3,5942
O=S(=O)(c1cccc2nsnc12)N1CCCC1,-9,-26,4,7,10,3.1,9358
CN1CCN(C(=O)/C(=C\c2cccs2)NC(=O)c2ccco2)CC1,-5,-44,0,4,0,0.7,2183
CCCCC(CCCC)=N/N=C/c1c(O)n(CC)c2cc(C3=NNC(=O)CC3)ccc12,-2,-12,/,/,/,/,2509
CC(=O)Nc1nc(-c2ccc(Cl)cc2)nc(C)c1C(C)=O,0,-75,-14,-12,-7,-1.1,5272
# (next part)
SMILES,BJeLR viability,PrP 5UTR inh,Mtb hypoxia rep,Mtb hypoxia rep growth,ugtP null kill,Sa RN4220 lethal,Autofluor counter
CN(C)S(=O)(=O)n1cc(/C=C(\NC(=O)c2ccccc2F)C(=O)NCCCN2CCOCC2)c2ccccc21,-7,-17,12,4,0,2.1,5474
CCOC(=O)c1cnc2ccc(C)cc2c1OCc1cc(F)cc(F)c1,-6,-3,/,/,3,-0.5,3762
CC(C)c1cc(C(=O)NN=Cc2cccnc2)n[nH]1,/,/,11,18,-3,3.7,/
COc1ccc(Br)cc1S(=O)(=O)Nc1ccc(Cl)cn1,-18,-17,4,-1,3,10,2971
COc1ccccc1-c1cn(-c2ccccc2)c(=S)[nH]1,3,-20,-10,0,1,4.8,3157
CCOC(=O)c1cn(-c2ccccc2CO)c2c(F)c(F)c(F)cc2c1=O,-7,-10,-3,13,1,6.1,10017
COc1cc2c(cc1OC)CN(C(=O)c1cccc([N+](=O)[O-])c1)CC2,2,5,1,1,6,2.6,4352
Cc1cc(C)c(NC(=O)CN2CCCCCC2)c(C)c1,-3,-20,-4,-4,8,2.1,3202
O=C(COC(=O)COc1ccc(Nc2ccccc2)cc1)NCc1ccco1,-7,-5,11,3,7,-24,2752
CC(C[N+](C)(C)C)OC(=O)C1(c2ccccc2)CCCC1 (configuration not stated),0,-23,-10,-2,-5,-0.6,3521
CCOc1ccc(C2Oc3nc(SC)nnc3-c3ccccc3N2C(C)=O)cc1OC (configuration not stated),0,-11,/,/,-6,4.1,6327
Nc1nc(Cl)cc(=O)n1Cc1ccc(Cl)cc1,-5,-5,-2,5,3,-2.0,4483
Cc1ccc(N2C(=O)CC2(C#N)c2ccc(OCc3ccccc3)cc2)cc1 (configuration not stated),-6,-7,3,-3,8,-2.2,7867
COc1ccc(C=NNC(=O)c2ccc(N(C)S(=O)(=O)c3ccccc3)cc2)cc1,/,/,-9,-8,0,5.2,/

# Random excerpt: 4 compounds from above, in no set order.
SMILES,BJeLR viability,PrP 5UTR inh,Mtb hypoxia rep,Mtb hypoxia rep growth,ugtP null kill,Sa RN4220 lethal,Autofluor counter
Cc1cc(C)c(NC(=O)CN2CCCCCC2)c(C)c1,-3,-20,-4,-4,8,2.1,3202
CC(C[N+](C)(C)C)OC(=O)C1(c2ccccc2)CCCC1 (configuration not stated),0,-23,-10,-2,-5,-0.6,3521
CC(C)c1cc(C(=O)NN=Cc2cccnc2)n[nH]1,/,/,11,18,-3,3.7,/
COc1cc2c(cc1OC)CN(C(=O)c1cccc([N+](=O)[O-])c1)CC2,2,5,1,1,6,2.6,4352

# Rows were taken by chance (roughly 4.1% active in at least one column).
